YB-1 expression = inhibitors of YB-1 gene expression, primary screen, cell-based, fluorescence; delta delta Cp (YB-1 minus CDIP) (concentration not given with the values); AID 434959, 2010; 30,000 compounds, 0.37% hits; U2OS, qRT-PCR YB-1 vs CDIP delta delta Cp, 16 h; hits give high values; zero = DMSO, each unit about twofold;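 active means delta delta Cp rounded down to an integer at or above 3, about 3 SD of DMSO wells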;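 further: higher means less YB-1 transcript or more CDIP transcript relative to DMSO; stock transfer was 100 nL into about 100 µL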
* hit, by the source's call. Only part of the results is shown; rates above refer to the full screens.

| entry | YB-1 expression | SMILES |
| --- | --- | --- |
| 1 | 0.064 | CCCC(O)C#Cc1cnc2c(c1)C(=O)N([C@H](C)CO)C[C@H](C)[C@H](CN(C)S(=O)(=O)c1cccs1)O2 (stereo not given in full) |
| 2 | -0.21 | C=CCNC(=O)[C@@H]1[C@H]2C(=O)O[C@H](c3ccccc3)[C@H](c3ccccc3)N2[C@H](c2ccccc2OCCO)[C@@]12C(=O)N(C(=O)OCCOC)c1ccc(C#CCCO)cc12 |
| 3 | -0.37 | CC(C)NC(=O)N(C)C[C@@H]1OCc2cnnn2CCCC(=O)N([C@H](C)CO)C[C@@H]1C |
| 4 | -0.37 | CCCN(C)C[C@@H]1Oc2ncc(C#Cc3ccc(OC)c(OC)c3)cc2C(=O)N([C@H](C)CO)C[C@@H]1C |
| 5 | -0.28 | CN(C)CCCCNC(=O)[C@@H]1C[C@@H]2C(=O)NCC(=O)N2[C@@H]1c1ccc(O)cc1 |
| 6 | -0.011 | COC(=O)CCCCCCC(=O)N/N=C/c1ccc(C(F)(F)F)cc1 |
| 7 | -0.36 | COc1cccc(S(=O)(=O)N(C)C[C@H]2OCc3cn(nn3)CCCC(=O)N([C@H](C)CO)C[C@H]2C)c1 |
| 8 | -0.19 | C=CCNC(=O)[C@H]1[C@@H]2C(=O)O[C@@H](c3ccccc3)[C@@H](c3ccccc3)N2[C@@H](c2ccc(OCCO)cc2)[C@]12C(=O)Nc1ccccc12 |
| 9 | 0.14 | COc1ccc(C#Cc2cnc3c(c2)C(=O)N([C@H](C)CO)C[C@H](C)[C@H](CN(C)C(=O)Nc2ccc(F)cc2)O3)cc1OC |
| 10 | -0.23 | C[C@@H]1CN([C@@H](C)CO)C(=O)CCCn2cc(nn2)CO[C@@H]1CN(C)C(=O)Nc1ccc(N2CCCCC2)cc1 |
| 11 | 0.15 | O=C(CCCCCC(=O)Nc1ccccc1O)N/N=C/c1cccc(B(O)O)c1 |
| 12 | -0.091 | COCCOC(=O)N1C(=O)[C@@]2(c3ccccc31)[C@H](c1ccc(OCCO)cc1)N1[C@H](c3ccccc3)[C@H](c3ccccc3)OC(=O)[C@H]1[C@@H]2C(=O)N1CCN(c2ncccn2)CC1 |
| 13 | -0.72 | C[C@H]1CN([C@@H](C)CO)C(=O)CCCn2nncc2CO[C@H]1CN(C)S(=O)(=O)c1ccc(F)cc1 |
| 14 | -0.099 | COc1ccc(C#Cc2ccc3c(c2)[C@]2(C(=O)N3)[C@H](C(N)=O)[C@H]3C(=O)O[C@H](c4ccccc4)[C@H](c4ccccc4)N3[C@@H]2c2ccccc2OCCO)cc1 |
| 15 | 0.24 | C[C@H](CO)N1C[C@H](C)[C@H](CN(C)C(=O)c2ccc3ccn(C)c3c2)OCc2cn(nn2)CCCC1=O |
| 16 | 0.43 | CC(C)S(=O)(=O)N1CCN(Cc2ccc(OCCO)cc2)CC1 |
| 17 | 0.061 | Cc1ccccc1CN(C)C[C@H]1OCc2cn(nn2)CCCC(=O)N([C@H](C)CO)C[C@@H]1C |
| 18 | -0.46 | C[C@@H]1CN([C@@H](C)CO)C(=O)CCCn2cc(nn2)CO[C@H]1CN(C)C(=O)C1CC1 |
| 19 | -0.39 | C[C@@H]1CN([C@@H](C)CO)C(=O)CCCn2cc(nn2)CO[C@@H]1CN(C)S(=O)(=O)c1cn(C)cn1 |
| 20 | -0.11 | COCCOC(=O)N1C(=O)[C@@]2(c3ccccc31)[C@H](c1ccccc1OCCO)N1[C@H](c3ccccc3)[C@H](c3ccccc3)OC(=O)[C@H]1[C@@H]2C(N)=O |
| 21 | 0.058 | C[C@H]1CN([C@@H](C)CO)C(=O)CCCn2nncc2CO[C@@H]1CN(C)C(=O)Nc1ccccc1 |
| 22 | -0.047 | C[C@H]1CN([C@@H](C)CO)C(=O)CCCn2cc(nn2)CO[C@H]1CN(C)S(=O)(=O)c1ccc2c(c1)OCCCO2 |
| 23 | -0.29 | C[C@H]1CN([C@@H](C)CO)C(=O)CCCn2cc(nn2)CO[C@H]1CN(C)S(=O)(=O)c1cccc(C#N)c1 |
| 24 | -0.15 | C[C@H]1CN([C@@H](C)CO)C(=O)CCCn2nncc2CO[C@H]1CN(C)C(=O)c1cc(-c2ccccc2)on1 |
| 25 | -0.0088 | NC(=O)NCC#Cc1ccc2c(c1)[C@]1(C(=O)N2)[C@H](c2ccccc2OCCO)N2[C@H](c3ccccc3)[C@H](c3ccccc3)OC(=O)[C@H]2[C@@H]1C(=O)NC[C@H](O)c1ccccc1 |
| 26 | -0.16 | COC(=O)C(CC#Cc1ccc2c(c1)[C@]1(C(=O)N2)[C@H](C(=O)NC[C@H](O)c2ccccc2)[C@H]2C(=O)O[C@H](c3ccccc3)[C@H](c3ccccc3)N2[C@@H]1c1ccc(O)cc1)C(=O)OC |
| 27 | 0.78 | O=C(NO)c1ccc(C(=O)N/N=C/c2cc(Br)cc(Br)c2O)cc1 |
| 28 | 0.25 | Cc1nc(S(=O)(=O)NC[C@@H]2CCCN(Cc3ccc(OCCO)cc3)C2)cn1C |
| 29 | -0.0022 | COc1cccc(S(=O)(=O)N(C)C[C@@H]2Oc3ncc(C#Cc4ccc(F)cc4)cc3C(=O)N([C@H](C)CO)C[C@@H]2C)c1 |
| 30 | -0.26 | COC(=O)CCCCCCC(=O)N/N=C/C1=CCCCC1 |
| 31 | 0.55 | COc1ccc([C@H]2C=C(C(=O)N3CCCCC3)O[C@@H](OCc3ccc(CO)cc3)C2)cc1 |
| 32 | 0.071 | NC(=O)COc1ccccc1/C=N/NC(=O)c1cccc(C(=O)NO)c1 |
| 33 | 0.12 | CC(C)COC(=O)N(C)C[C@H]1OCc2cnnn2CCCC(=O)N([C@@H](C)CO)C[C@@H]1C |
| 34 | -0.18 | O=C(O)c1ccc(/C=N/NC(=O)c2ccccn2)cc1 |
| 35 | -0.12 | C[C@H]1CN([C@@H](C)CO)C(=O)CCCn2cc(nn2)CO[C@H]1CN(C)S(=O)(=O)c1ccc(F)cc1 |
| 36 | 0.32 | C[C@@H]1CN([C@@H](C)CO)C(=O)CCCn2nncc2CO[C@@H]1CN(C)S(=O)(=O)c1ccccc1C#N |
| 37 | -0.25 | C[C@H](CO)N1C[C@H](C)[C@@H](CN(C)C(=O)Nc2ccccc2C(F)(F)F)OCc2cn(nn2)CCCC1=O |
| 38 | 0.55 | C[C@@H]1CN([C@@H](C)CO)C(=O)CCCn2nncc2CO[C@H]1CN(C)C(=O)CCC(F)(F)F |
| 39 | 0.16 | C[C@@H]1CN([C@H](C)CO)C(=O)CCCn2cc(nn2)CO[C@H]1CN(C)C(=O)Nc1cccc(C(F)(F)F)c1 |
| 40 | 0.13 | CN(C)c1ccc(/C=N/NC(=O)CCCCCCC(=O)Nc2ccccc2O)cc1 |
| 41 | 2.2 | [N-]=[N+]=NCc1ccccc1C[C@]1(C(=O)NCc2ccccc2)COC(c2ccc(OCCCO)cc2)=N1 |
| 42 | -0.27 | C[C@@H]1CN([C@H](C)CO)C(=O)CCCn2cc(nn2)CO[C@@H]1CN(C)S(=O)(=O)c1ccc(C#N)cc1 |
| 43 | -0.12 | Cc1cccc(S(=O)(=O)N(C)C[C@@H]2OCc3cnnn3CCCC(=O)N([C@@H](C)CO)C[C@H]2C)c1 |
| 44 | -0.42 | O=C(NO)c1ccc(C(=O)N/N=C/c2cccc3ccccc23)cc1 |
| 45 | -0.3 | O=C(O)CCCCCCC(=O)N/N=C/c1ccc(CO)o1 |
| 46 | -0.11 | C[C@H]1CN([C@@H](C)CO)C(=O)CCCn2nncc2CO[C@@H]1CN(C)C(=O)Nc1ccc(F)cc1 |
| 47 | 0.19 | C[C@H](CO)N1C[C@H](C)[C@H](CN(C)S(=O)(=O)c2ccc(Oc3ccccc3)cc2)OCc2cn(nn2)CCCC1=O |
| 48 | 0.15 | COC(=O)[C@]1(Cc2ccccc2N=[N+]=[N-])N=C(c2ccc(OCCCO)cc2)O[C@@H]1c1ccccc1 |
| 49 | -0.27 | C[C@H](CO)N1C[C@H](C)[C@@H](CN(C)C(=O)Nc2ccc(N3CCCCC3)cc2)OCc2cn(nn2)CCCC1=O |
| 50 | 0.15 | COc1ccc([Si](C)(C)[C@H]2[C@H](CCn3cc(CCO)nn3)O[C@@]3(C(=O)N(C)c4ccccc43)[C@@H]2C)cc1 |

Next part
| entry | YB-1 expression | SMILES |
| --- | --- | --- |
| 51 | -1.3 | O=C(NO)c1ccc(C(=O)N/N=C/c2ccccc2Br)cc1 |
| 52 | 0.3 | CCN(CC)c1ccc(/C=N/NC(=O)c2cccc(C(=O)NO)c2)c(O)c1 |
| 53 | -0.46 | COc1cc(/C=N/NC(=O)CCCCC(=O)NO)c([N+](=O)[O-])cc1OC |
| 54 | -0.25 | C[C@@H]1CN([C@H](C)CO)C(=O)CCCn2nncc2CO[C@H]1CN(C)S(C)(=O)=O |
| 55 | -0.46 | O=C(N/N=C/Cc1ccccc1)c1ccccn1 |
| 56 | 0.023 | O=C(N/N=C/c1ccc(F)c(Oc2ccccc2)c1)c1ccccc1O |
| 57 | -0.0017 | CC(C)=CCC[C@@H](C)C/C=N/NC(=O)c1ccccn1 |
| 58 | -0.17 | O=C1O[C@@H](c2ccccc2)[C@@H](c2ccccc2)N2[C@@H](c3ccccc3OCCO)[C@]3(C(=O)Nc4ccc(C#CCCO)cc43)[C@@H](C(=O)O)[C@H]12 |
| 59 | 0.29 | CCCN(C)C[C@@H]1Oc2ncc(Br)cc2C(=O)N([C@H](C)CO)C[C@@H]1C |
| 60 | -0.21 | O=C(N/N=C/c1ccc(OCCO)cc1)c1ccccn1 |
| 61 | -0.16 | [N-]=[N+]=Nc1ccccc1C[C@]1(C(=O)NCc2ccccc2)COC(c2ccc(OCCCO)cc2)=N1 |
| 62 | -0.2 | COc1cccc(CN(C)C[C@@H]2OCc3cn(nn3)CCCC(=O)N([C@H](C)CO)C[C@H]2C)c1 |
| 63 | 0.035 | O=C(NO)c1cccc(C(=O)N/N=C/c2ccc(-c3ccccc3)cc2)c1 |
| 64 | 0.32 | C[C@H]1CN([C@@H](C)CO)C(=O)CCCn2cc(nn2)CO[C@@H]1CN(C)Cc1cccc2c1OCCCO2 |
| 65 | -0.35 | COc1ccc([Si](C)(C)[C@H]2[C@H](CCn3cc([C@H](O)c4ccccc4)nn3)O[C@@]3(C(=O)N(Cc4ccc(N5CCOC5=O)cc4)c4ccccc43)[C@@H]2C)cc1 |
| 66 | 0.33 | C[C@H](CO)N1C[C@H](C)[C@H](CN(C)C)OCc2cn(nn2)CCCC1=O |
| 67 | -0.38 | C[C@@H]1CN([C@@H](C)CO)C(=O)CCCn2cc(nn2)CO[C@H]1CN(C)Cc1ccc(O)cc1 |
| 68 | -0.061 | O=S(=O)(c1ccc(Cl)c(Cl)c1)N1CCN(Cc2ccc(OCCO)cc2)CC1 |
| 69 | -0.33 | CC(C)COC(=O)N(C)C[C@@H]1OCc2cn(nn2)CCCC(=O)N([C@H](C)CO)C[C@H]1C |
| 70 | 0.28 | C[C@@H]1CN([C@@H](C)CO)C(=O)CCCn2cc(nn2)CO[C@H]1CN(C)S(=O)(=O)c1ccc2c(c1)OCCCO2 |
| 71 | -0.44 | COC(=O)CCCCCCC(=O)N/N=C/c1cc(Br)ccc1OC |
| 72 | 0.14 | O=C(NO)c1ccc(C(=O)N/N=C/c2nccs2)cc1 |
| 73 | -0.039 | [N-]=[N+]=Nc1ccccc1C[C@@]1(C(=O)NCCN2CCOCC2)N=C(c2ccc(OCCCO)cc2)O[C@@H]1c1ccccc1 |
| 74 | 0.54 | O=C1O[C@@H](c2ccccc2)[C@@H](c2ccccc2)N2[C@@H](c3ccc(O)cc3)[C@]3(C(=O)Nc4ccc(C#CC5=CCCCC5)cc43)[C@@H](C(=O)O)[C@H]12 |
| 75 | 0.43 | C=CC[C@@]1(C(=O)N(C)C)N=C(c2ccc(OCCCO)cc2)O[C@@H]1c1ccccc1 |
| 76 | 0.1 | C[C@@H]1CN([C@@H](C)CO)C(=O)CCCn2cc(nn2)CO[C@@H]1CN(C)C(=O)c1cc(-c2ccccc2)on1 |
| 77 | 0.51 | COc1cc(Br)cc(/C=N/NC(=O)c2ccccc2O)c1O |
| 78 | -0.13 | CC(C)COC(=O)N(C)C[C@@H]1OCc2cn(nn2)CCCC(=O)N([C@H](C)CO)C[C@@H]1C |
| 79 | 1.2 | COC(=O)CCCCCCC(=O)N/N=C/c1cc2c(cc1Br)OCO2 |
| 80 | -0.049 | O=C(O)CCCCCCC(=O)N/N=C/c1cc(O)ccc1Br |
| 81 | 0.55 | O=C(N/N=C/c1ccc(F)c(Oc2ccccc2)c1)c1ccccn1 |
| 82 | -0.058 | C[C@H]1CN([C@@H](C)CO)C(=O)CCCn2nncc2CO[C@H]1CN(C)CC1CCCCC1 |
| 83 | -0.12 | O=C(NCCN1CCOCC1)[C@]1(CCS(=O)(=O)c2ccccc2)N=C(c2ccc(OCCCO)cc2)O[C@@H]1c1ccccc1 |
| 84 | 0.65 | O=C(NCc1ccc(Cl)cc1)C1=C[C@H](c2coc3ccccc3c2=O)C[C@H](OCCCCO)O1 |
| 85 | 0.017 | CC1(C)[C@H]2CC=C(/C=N\NC(=O)CCCCCCC(=O)O)[C@@H]1C2 |
| 86 | 0.06 | C[C@H]1CN([C@@H](C)CO)C(=O)CCCn2cc(nn2)CO[C@H]1CN(C)C(=O)Nc1ccc2c(c1)OCO2 |
| 87 | -0.54 | COc1ccc(/C=N/NC(=O)CCCCCCC(=O)Nc2ccccc2O)c(O)c1 |
| 88 | -0.15 | Cc1ccc(S(=O)(=O)N(C)C[C@@H]2Oc3ncc(C#Cc4ccc(F)cc4)cc3C(=O)N([C@H](C)CO)C[C@@H]2C)cc1 |
| 89 | 0.19 | Cc1ccc(S[C@]2(C(=O)NCC(F)(F)F)CC(=O)N(C3CCCCC3)[C@@H]2c2ccc(CO)cc2I)cc1 |
| 90 | -0.058 | COC(=O)[C@]1(Cc2ccccc2CN=[N+]=[N-])N=C(c2ccc(OCCCO)cc2)O[C@@H]1c1ccccc1 |
| 91 | -0.092 | C[C@H](CO)N1C[C@H](C)[C@@H](CN(C)C(=O)c2ccc3ccn(C)c3c2)OCc2cn(nn2)CCCC1=O |

Screening results (PubChem)
